KCNQ2 inh: KCNQ2 potassium channel inhibitors, primary screen, cell-based, CHO-K1, FluxOR thallium flux, B-score (AID 2156); Potassium voltage-gated channel subfamily KQT member 2 (Rattus norvegicus), O88943; 20 min; stronger effect = lower value; only compounds with negative scores are shown here; some inactives read as strong as hits; B-score at 10 µM; actives 1.1% (n = 310,000);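 active means fluorescence ratio B-score at most minus 3 library SDs, with starting brightness B-score within 2 library SDs, cut at about -5.5 in these data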
Target sequence (O88943 whole entry, looked up): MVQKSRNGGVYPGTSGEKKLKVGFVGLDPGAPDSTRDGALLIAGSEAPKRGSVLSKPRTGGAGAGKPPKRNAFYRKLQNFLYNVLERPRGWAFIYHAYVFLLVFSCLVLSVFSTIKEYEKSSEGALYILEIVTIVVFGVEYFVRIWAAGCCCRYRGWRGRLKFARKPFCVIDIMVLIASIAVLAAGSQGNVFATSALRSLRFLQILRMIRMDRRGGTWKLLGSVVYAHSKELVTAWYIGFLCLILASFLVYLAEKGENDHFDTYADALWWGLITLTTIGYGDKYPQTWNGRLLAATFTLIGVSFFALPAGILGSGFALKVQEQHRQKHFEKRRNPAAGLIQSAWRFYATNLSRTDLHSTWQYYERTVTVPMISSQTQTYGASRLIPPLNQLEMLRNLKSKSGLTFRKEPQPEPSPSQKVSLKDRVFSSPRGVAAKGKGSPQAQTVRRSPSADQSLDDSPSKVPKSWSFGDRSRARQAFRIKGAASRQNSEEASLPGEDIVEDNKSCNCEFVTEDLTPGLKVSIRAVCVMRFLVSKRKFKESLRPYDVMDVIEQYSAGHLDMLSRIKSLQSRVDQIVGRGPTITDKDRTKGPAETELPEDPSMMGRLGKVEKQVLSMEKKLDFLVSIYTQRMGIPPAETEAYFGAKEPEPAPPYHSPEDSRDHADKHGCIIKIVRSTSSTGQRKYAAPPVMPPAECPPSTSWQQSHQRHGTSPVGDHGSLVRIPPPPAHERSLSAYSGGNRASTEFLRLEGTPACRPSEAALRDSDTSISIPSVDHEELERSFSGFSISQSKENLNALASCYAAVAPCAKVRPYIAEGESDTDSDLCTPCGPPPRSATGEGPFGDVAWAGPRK
KCNQ2 inh baseline: second read-out of KCNQ2 inh, no call of its own (marks repeat the call); B-score; measured here: initial fluorescence intensity artifact check;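 brightness before thallium and not channel activity; 0 = typical well and far values either way flag optical interference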
The depositor's hits bear a star; i = inactive. These rows are one share of the data; rates above refer to the full screens.

mol	KCNQ2 inh baseline	KCNQ2 inh
Cc1ccc(CN2C(=O)CN=C(c3ccccc3)c3ccccc32)cc1	-1.5	i
CC(C)Oc1ccc(C2(C#N)CC[N+](C)(C)CC2)cc1	-0.59	i
CCn1c(O)c(C=NCCN2CCOCC2)c(=O)n(CC)c1=S	-0.45	i
O=C(Cc1ccccc1)N1CCN(Cc2c[nH]c3ccccc23)CC1	2.6	i
O=C(c1cc2c(s1)CCCC2)N1CCC2(CC1)OCCO2	0.12	i
C=CCn1c(O)c(C=NCCCn2ccnc2)c(=O)[nH]c1=O	2.2	i
CCOc1ccccc1N1C(=O)NC(=O)/C(=C/c2ccc3c4c(cccc24)CC3)C1=O	-2.4	i
CC(=O)c1cn(Cc2ccc(C#N)cc2)c2ccccc12	-0.46	i
Cc1cccc(-n2c(O)c(C=Nc3ccc(Br)cn3)c(=O)[nH]c2=O)c1	1.6	i
CN1CCN(C(=S)SCC(=O)Nc2ccc(Cl)cc2C(=O)c2ccccc2)CC1	-0.96	i
CC(C)CC(NC(=O)C1CCCCC1)C(=O)N1CCC2(CC1)OCCO2 (stereo not given)	-1.7	i
CN1CCN(C(=O)COc2ccc(S(=O)(=O)Nc3ccc(F)cc3)cc2)CC1	0.6	i
COc1ccc(CN2CCN(C(=O)Cc3ccccc3)CC2)cc1Br	0.77	i
Cc1ccc2[nH]c(C)c(CCNCc3cccnc3)c2c1	2.5	i
C#C[C@]1(O)CC[C@H]2[C@@H]3CCC4=CC(=O)CC[C@]4(C)[C@H]3CC[C@@]21C	2	i
COC(=O)C1=C(c2cc3ccccc3s2)C[C@@H]2CC[C@H]1N2C(=O)NCCNC(C)=O	-0.02	i
O=C(N/N=C\C1C(=O)NC(=S)N(c2ccccc2)C1=O)c1ccc(O)cc1 (stereo not given)	0.53	i
CNc1ccc2nc3ccccc3[n+](C)c2c1	-0.39	i
CCNC(=S)N(C)CCc1cc2c(c(OC)c1C=C1C(=O)N(C)C(=O)N(C)C1=O)OCO2	-0.1	i
O=C(Cc1ccccc1)N1CCN(Cc2ccc(F)cc2)CC1	1.3	i
O=C(c1ccc2c(c1)OCO2)C1CCCN(Cc2ccc(F)c(F)c2)C1 (stereo not given)	0.03	i
CN(C)CCN=Cc1c(O)n(C2CCCCCC2)c(=O)[nH]c1=O	-0.4	i
Cc1ccccc1-n1c(O)c(C=Nc2ccc3c(c2)OCO3)c(=O)[nH]c1=O	-1	i
CCC(=NCc1ccco1)c1c(O)n(-c2ccccc2)c(=O)[nH]c1=O	-0.15	i
C/C(=N\N1CCCCCC1)c1c(O)n(-c2ccccc2C)c(=O)[nH]c1=O	0.29	i

Brought forward from above: 2 entries, then new ones.
mol	KCNQ2 inh baseline	KCNQ2 inh
CCC(=NCc1ccco1)c1c(O)n(-c2ccccc2)c(=O)[nH]c1=O	-0.15	i
C/C(=N\N1CCCCCC1)c1c(O)n(-c2ccccc2C)c(=O)[nH]c1=O	0.29	i
COc1ccc(P2(=O)Nc3ccccc3N2)cc1	2.3	i
O=P(/C(=N/O)N1CCOCC1)(N1CCOCC1)N1CCOCC1	0.9	i
O=C(N/N=C/c1c(O)n(CCc2ccccc2)c(=O)[nH]c1=O)c1ccncc1	0.02	i
Cc1cccc(C)c1NC1=NCCCS1	0.35	i
COc1ccc(-n2c(O)c(/C(C)=N/Nc3ccccc3)c(=O)[nH]c2=O)cc1	1.4	i
CCc1ccc(-n2c(O)c(/C=N/NC(=O)c3ccncc3)c(=O)[nH]c2=O)cc1	-2	i
CCCC(C)C1C(C#N)=C(N)Oc2c1c(=O)oc1ccccc21 (stereo not given)	0.91	i
CC(=NCC1CCCO1)c1c(O)n(-c2ccc(Cl)cc2)c(=O)[nH]c1=O (stereo not given)	-1	i
O=c1cc(CN2CC=C(c3ccccc3)CC2)c2c(ccc3ccccc32)o1	0.95	i
CN(C)C1(c2nnnn2CCOC(=O)Nc2ccc(Cl)cc2)CCCCC1	0.91	i
CCC(C(=O)N1C[C@H]2C[C@@H](C1)c1cccc(=O)n1C2)c1ccccc1 (stereo not given in full)	-0.36	i
Cc1oc(-c2ccccc2)nc1CN1C(=O)C(C)N=C(c2ccccc2F)c2cc(Cl)ccc21 (stereo not given)	0.02	i
CN1CCN(CCC(C#N)(c2ccccc2)c2ccccc2)CC1	0.59	i
Cc1ccc(-c2nn(Cc3ccccc3)cc2C=O)cc1C	0.81	i
CCCSP1(=S)NCCCO1 (stereo not given)	0.4	i
COc1ccc(CCNCc2ccc(SC)cc2)cc1	0.03	i
CN1C(=O)C(=Cc2ccc(N3CCOCC3)o2)C(=O)N(C)C1=S	2.8	i
O=C(O)C(Cc1cnc[nH]1)NS(=O)(=O)c1ccc(Cl)cc1 (stereo not given)	1.8	i
COc1ccc(C2CC(c3c(O)n(CCc4ccccc4)c(=O)[nH]c3=O)=NN2)cc1OC (stereo not given)	-1.1	i
N[C@@H]1CCCC[C@H]1N.O=C(O)C(=O)O.[Pt]	0.68	i
COc1ccc2c(c1)c(C(=O)O)c(C)n2C(C)C	0.18	i
O=c1c2ccccc2nc(-c2ccc([N+](=O)[O-])cc2)n1-c1ccccc1	-0.24	i
O=C1NC(=O)C2(C(=O)N1)C(c1ccc(F)cc1)NC(=S)NC2c1ccc(F)cc1 (stereo not given)	-0.26	i
NS(=O)(=O)c1ccc(-c2ccc(C=C3C(=O)NC(=S)NC3=O)o2)cc1	0.12	i
C=CCn1c(O)c(C=Nc2c(C)n(C)n(-c3ccccc3)c2=O)c(=O)[nH]c1=O	-0.59	i

Single records (already shown). Order of values: KCNQ2 inh baseline, KCNQ2 inh
`NS(=O)(=O)c1ccc(-c2ccc(C=C3C(=O)NC(=S)NC3=O)o2)cc1` is listed with 0.12, i
`O=c1cc(CN2CC=C(c3ccccc3)CC2)c2c(ccc3ccccc32)o1` is listed with 0.95, i
`COc1ccc2c(c1)c(C(=O)O)c(C)n2C(C)C` is listed with 0.18, i
`CN(C)C1(c2nnnn2CCOC(=O)Nc2ccc(Cl)cc2)CCCCC1` is listed with 0.91, i
`O=P(/C(=N/O)N1CCOCC1)(N1CCOCC1)N1CCOCC1` is listed with 0.9, i

Later entries.
mol	KCNQ2 inh baseline	KCNQ2 inh
CCN(c1ccc(C(O)(C(=O)OC)C(F)(F)F)cc1)S(=O)(=O)c1ccccc1 (stereo not given)	-0.04	i
CC1=Nc2ccccc2/C1=C/c1c(O)n(C)c(=O)[nH]c1=O	-2.3	i
COc1ccc(/C=N/N=C(/N)N[N+](=O)[O-])c(OC)c1	-0.96	i
COc1ccc(OC)c(CN2CCCC(C(=O)c3sccc3C)C2)c1 (stereo not given)	1.3	i
Cc1cccc(-n2c(O)c(C=NCCCN3CCOCC3)c(=O)[nH]c2=O)c1C	0.45	i
CC(=O)c1ccc(OC(=O)N(C)c2ccccc2)cc1	-0.51	i
CCCCn1c(=O)c(C(=O)Nc2cccc(C)c2)c(O)c2ccccc21	-0.03	i
O=P(C(c1c[nH]c2ccccc12)N1CCOCC1)(N1CCOCC1)N1CCOCC1 (stereo not given)	0.65	i
O=C1NC(=O)C(CCc2ccccn2)(Cc2cccc(Cl)c2Cl)C(=O)N1c1ccc(Br)cc1 (stereo not given)	2	i
CCN(CC)c1ccc(N=Cc2c(O)n(Cc3ccco3)c(=O)[nH]c2=O)cc1	1.3	i
O=C(O)CN1C(=O)CN=C(c2ccccn2)c2cc(Cl)ccc21	2.1	i
C=CCn1c(O)c(/C=N/NC(=O)CCCC)c(=O)[nH]c1=S	-0.4	i
O=P(Oc1ccccc1)(Oc1ccccc1)C(O)c1ccccc1 (stereo not given)	-0.42	i
O=C1NC(=O)N(c2ccc3c(c2)OCO3)C(=O)/C1=C\c1ccsc1	2	i
CCN1C(=O)NC(=O)/C(=C\c2cn(CC(=O)N3CCCCC3C)c3ccccc23)C1=O (stereo not given)	-2.7	i
O=c1[nH]c(=S)n(-c2ccccc2)c(O)c1C=NCc1ccccn1	-0.68	i
CCOC(=O)C1(CCOc2ccccc2)CCN(Cc2ccccc2OC)CC1	0.08	i
CCCCn1c(O)c(C(=O)/C=C/c2c[nH]c3ccccc23)c(=O)[nH]c1=O	11	i
C=CCN1C(=O)C2(C(C(=O)OCC)=C(N)Oc3ccccc32)c2c1c1ccccc1oc2=O (stereo not given)	-0.55	i
CCC(CC)N1CCN(C(=O)Cc2ccccc2)CC1	1.7	i
CCOc1ccc2oc(C(=O)NN3C(C)CCCC3C)c(C)c2c1 (stereo not given)	-0.54	i
N#CCP(=S)(c1ccccc1)c1ccccc1	0.37	i
C=C(COC(C)=O)CC1CC(O)[C@]2(C)OC3CC4OC5C[C@]6(C)O[C@]7(C)CCC8OC9C[C@]%10(C)OC%11C(C)=CC(=O)OC%11CC%10OC9C[C@@H](C)C8OC7CC6O[C@]5(C)C/C=C\C4OC3CC2O1 (stereo not given in full)	-0.49	i
O=C(NC12CC3CC(CC(C3)C1)C2)OC1CN2CCC1CC2 (stereo not given)	0.67	i
COc1ccccc1-n1c(Cc2ccccc2)nc2ccccc2c1=O	0.43	i

More records
mol	KCNQ2 inh baseline	KCNQ2 inh
O=C(c1ccc2c3c(cccc13)CC2)C1CCCN(Cc2ncc[nH]2)C1 (stereo not given)	-0.89	i
CN(C)C(Cc1ccccc1)C(=O)c1ccccc1 (stereo not given)	-0.46	i
Cn1c2ccccc2c2c(C(=O)N3CCC4(CC3)OCCO4)cn(C3CCCCC3)c(=O)c21	-0.94	i
O=C(N/N=C/c1c(O)n(Cc2ccccc2)c(=O)[nH]c1=O)c1ccncc1	0.52	i
CN1C(=O)C(=Cc2cccnc2)C(=O)N(C)C1=O	1.1	i
CCCCn1c(NC(=O)c2ccc(Br)o2)c(C(=O)OCC)c2nc3ccccc3nc21	-0.5	i
C[C@]12CCC3[C@@H](CCC4=CC(=O)CC[C@@]43C=O)C1CCC2=O (stereo not given in full)	0.01	i
Cc1ccc(C(=O)O)cc1N=Nc1c(O)[nH]c(=O)[nH]c1=O	0.18	i
CC(C)(C)C(=O)Cn1c(NCCCl)nc2ccccc21	0.02	i
Cn1c(O)c(/C=N/NC(=O)c2ccncc2)c(=O)n(C)c1=S	0.73	i
CN1C(=O)C(=Cc2ccccc2OCCOc2ccc([N+](=O)[O-])cc2)C(=O)N(C)C1=O	2.6	i
O=C1NC(=O)N(c2ccc3c(c2)OCO3)C(=O)/C1=C\c1ccc(N2CCCCC2)o1	7.4	i
CCCCCCn1c(O)c(/C=N/N2CCCCCC2)c(=O)[nH]c1=O	2	i
Cc1ccc(-n2nc(C)c3c2NC(=O)CSC3c2ccc3c(c2)OCO3)cc1 (stereo not given)	-0.12*	-5.6*
O=C(Nc1cccc(C(F)(F)F)c1)c1cccn(Cc2ccc3c(c2)OC(F)(F)O3)c1=O	1.2	i
O=C(O)Cn1cc(C(=O)c2ccccc2F)c2ccccc21	0.57	i
COc1ccc(OCC(=O)N2CCN(C3CCC(c4ccccc4)CC3)CC2)cc1 (stereo not given)	-2.9	i
CC(C)(C)c1nc(NCc2ccc3c(c2)OCO3)c2nnn(Cc3ccccc3Cl)c2n1	0.32	i
COc1ccc(C2=NCc3nnc(C)n3-c3ccc(Cl)cc32)cc1Cl	-1.1	i
CC(=NCCCn1ccnc1)c1c(O)n(C)c(=O)n(C)c1=O	2.9	i
COc1cc(/C=C2\C(=O)NC(=O)N(c3ccccc3)C2=O)cc(OC)c1O	0.3	i
COc1ccc(Cn2c(O)c(C=NCCCn3ccnc3)c(=O)[nH]c2=O)cc1	4.2	i
Fc1ccc(CNCCc2c[nH]c3ccccc23)cc1	-0.03	i
CCCCN1C(=O)NC(=O)C2(Cc3cc(C)ccc3N(C)C2)C1=O (stereo not given)	2.3	i
Cc1ccccc1OP(N)(=O)Oc1ccccc1C	-0.49	i

New compounds follow
mol	KCNQ2 inh baseline	KCNQ2 inh
Cc1cccn2c(=O)c3c(nc12)N1CCc2ccccc2C1C1(C3)C(=O)NC(=O)N(C)C1=O (stereo not given)	1.6	i
Cc1c(N=Nc2c(O)n(-c3ccc(Br)cc3)c(=O)[nH]c2=O)c(=O)n(-c2ccccc2)n1C	-0.15	i
COc1ccc(CC(=O)N2CCN(C)CC2)cc1	1.2	i
O=C1NC(=O)C(=Cc2ccc(N3CCOCC3)cc2)C(=O)N1	-1.3	i
C=CC[N+]1(C)CC[C@]23c4c5ccc(O)c4O[C@H]2C(=O)CC[C@@]3(O)[C@H]1C5 (stereo not given in full)	0.79	i
O=C(c1ccc2c(c1)OCO2)C1CCCN(Cc2ccccn2)C1 (stereo not given)	-1.7	i
CC(=NCCCn1ccnc1)c1c(O)n(C2CCCCC2)c(=O)[nH]c1=O	2.2	i
C=CCn1c(=O)c(C=Nc2cccnc2Cl)c(O)n(CCCC)c1=O	0.79	i
CCOC(=O)[C@@H]1[C@H]2COc3ccc(Br)cc3[C@@H]2N2C(=O)N(c3cccc(C)c3)C(=O)[C@]12C	0.01	i
O=C(C1CC(c2ccccc2O)=NO1)N1CCC2(CC1)OCCO2 (stereo not given)	0.04	i
O=C(Cn1nc(-c2ccccc2)ccc1=O)N1CCC2(CC1)OCCO2	-0.61	i
CC(C)C[C@H]1C(=O)N2CCCC2[C@]2(O)O[C@](NC(=O)[C@@H]3C=C4c5cccc6[nH]cc(c56)CC4N(C)C3)(C(C)C)C(=O)N12 (stereo not given in full)	4.7	i

Compound activity as filed in PubChem BioAssay.
